Screening data deposited in PubChem BioAssay by ICCB-Longwood Screening Facility, Harvard Medical School.
VACV E9 pol inh: blocks vaccinia virus processive DNA synthesis; in vitro processive DNA synthesis, absorbance read-out; active compounds read low; some inactives read as strong as hits; normalized absorbance, % (test concentration not listed); hit rate 0.94% among 46,000; AID 493162;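 active = replicate mean up to 90% and picked by the depositor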;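 note: 100% = median of the test wells of a plate; 100 nL library stock went into each well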
* marks the source's active call; other numbers are inactive results.

SMILES | VACV E9 pol inh
O=C(COC(=O)Cc1ccccc1)NC1CCCc2ccccc21 (stereo unspecified) | 96.9
O=C(O)CCCC(=O)Nc1ccc(Cl)cc1 | 106.4
COc1cc(C(=O)Sc2ccc(Cl)cc2)cc(OC)c1OC | 94.7
CC(C)NC(=O)c1sc2c(c1C(=O)Nc1cccnc1)CCCC2 | 96.9
CCOC(=O)NC(=O)c1cn(Cc2ccco2)c(=O)n(Cc2ccccc2)c1=O | 89.2
N#Cc1ccc(C(N)CC(=O)O)cc1 (stereo unspecified) | 106.8
O=C1C2=C(c3ccccc3)c3cc(F)ccc3C2Sc2ccccc21 (stereo unspecified) | 94.0
CCN(CC)S(=O)(=O)c1ccccc1/C=N/O | 98.7
O=C(COC(=O)C(c1ccccc1)c1ccccc1)NC1CCCCC1 | 97.3
Cc1c(Cl)cccc1NC(=O)c1cccnc1Cl | 99.8
CC1CCc2sc(NC(=O)C(Cc3ccccc3)Cc3ccccc3)c(C#N)c2C1 (stereo unspecified) | 100.2
Cc1nnc(SCC(=O)O)[nH]c1=O | 96.1
CCc1cccc2c(/C=C3/C(=O)N(C)c4ccccc43)cn(CC(=O)NC3CCCC3)c12 | 100.9
Cc1cc2ncn(Cc3ccccc3C)c2cc1C | 97.6
COc1ccc2cc(CCNC(=O)CC(C)C)c(=O)[nH]c2c1 | 100.4
C=C(C)CC1C(=O)N(S(=O)(=O)c2ccccc2Cl)N=C1C (stereo unspecified) | 86.5
CC(c1cccs1)N(C(=O)Nc1ccccc1)C1CCCCC1 (stereo unspecified) | 107.4
O=C(Cn1cnc2c(oc3ccccc32)c1=O)N1CCCCCC1 | 95.3
COc1cccc2c(C)cc(=O)[nH]c12 | 99.3
O=C(O)CSc1ncnc2scc(-c3ccc(Br)cc3)c12 | 67.6*
Cc1ccc2cccc(OCc3ccccc3)c2n1 | 99.9
COc1ccc2oc(=O)c(C(=O)c3ccccc3)cc2c1 | 100.6
CCn1c(NCCSc2nc3ccccc3n2C)nc2ccccc21 | 84.0
CCc1ccc(NCc2cccc3c2CN(CC)C3)cc1 | 98.9
O=C(CSc1nc2ccccc2o1)c1ccccc1 | 99.2
O=C(NCCN1CCCCCC1)c1cnn2c(C(F)(F)F)cc(-c3ccccc3)nc12 | 94.0
N/C(=N\O)c1cccc(/C(N)=N/O)n1 | 100.5
O=C(Nc1ccc(Cl)cc1)c1ccc2ncsc2c1 | 99.5
Cc1cc(C)n(C(=O)c2ccc(NC(=O)C3CCCCC3)cc2)n1 | 96.6
O=c1/c(=C/c2ccccc2)sc2nc(-c3ccccc3)nn12 | 100.1
Cc1ccccc1NC(=O)CC1SC(=O)N(c2ccccc2)C1=O (stereo unspecified) | 99.5
O=S(=O)(Nc1cccnc1)c1ccc2c(c1)OCCO2 | 90.9
CSc1nnc(-c2ccc(C(C)(C)C)cc2)n1C | 100.4
Cc1ccc(CNC(=O)CCCc2nnc3n4nc(C)nc4c4ccccc4n23)cc1 | 96.9
O=C(CCC1CCCC1)Nc1noc2ccccc12 | 102.7
Cn1c(C(C#N)C(=O)C2CCCCC2)nc2ccccc21 (stereo unspecified) | 108.5
CC(=O)N1CCc2cc(C(O)CN3CCN(C4CCCCC4)CC3)ccc21 (stereo unspecified) | 102.2
OCCNc1nc2ccccc2[nH]1 | 95.1
O=C(CSc1ncnc2c1nnn2Cc1ccccc1)NCc1ccccc1 | 101.4
Cc1c(C)n(Cc2ccccc2)c2ccc(C(=O)Nc3ncn[nH]3)cc12 | 90.3
COC(=O)c1cccn1-c1ccc(Br)cc1 | 93.2
O=C(O)c1cc(-c2ccccc2)c(C(=O)O)cn1 | 100.1
Cc1c(Cc2ccccc2)sc(/N=C/c2ccc3ccccc3c2)c1C(N)=O | 97.3
C=CCn1cnc2scc(-c3ccc(OC)cc3)c2c1=O | 106.2
COc1ccc(C2SCC(C(=O)NC(C)C)N2C(=O)Nc2ccc(C)c(C)c2)cc1 (stereo unspecified) | 101.8
CCOC(=O)c1c(-c2ccc(C)cc2)csc1NC(=O)c1ccco1 | 102.1
CC(Oc1ccccc1)c1ccn[nH]1 (stereo unspecified) | 96.1
O=C(/C=C/c1ccccc1)Nc1nc(-c2ccccc2)cs1 | 86.8
CCOC(=O)C1C(=O)Oc2ccc3ccccc3c2C1C1CCOC1=O (stereo unspecified) | 100.4
CC(=O)Nc1cc(C(=O)N2CC=C(c3ccccc3)CC2)ccc1Sc1ccc(Cl)cc1 | 93.0
COc1ccccc1C(=O)NCCSc1c[nH]c2ccccc12 | 100.6
N#Cc1ccc(-c2cc(C(F)(F)F)ccc2Cl)o1 | 109.4
Cc1noc(/C=C/N(C)C)c1S(=O)(=O)N1CCCC(C(=O)NC2CCCCC2)C1 (stereo unspecified) | 97.2
Cc1ccc(-c2cc(C(F)(F)F)n3ncc(C(=O)OC(C)C)c3n2)cc1 | 99.9
Cn1c(C(=O)NC2CCCC2)cc2c(=O)n(C)c3ccccc3c21 | 92.3
c1ccc(CCNC2=NCCS2)cc1 | 100.7
Cc1ccc(CNC(=O)c2c[nH]n3c(=O)cc(CSc4ccc(Cl)cc4)nc23)cc1 | 104.5
COc1nsc(Br)c1C#N | 100.3
CC(C)(C)C(=O)COC(=O)c1cc(-c2ccccc2)nc2ccccc12 | 100.1
Cc1ccc(C)c(-c2csc(N)c2C#N)c1 | 89.2
Continued.
SMILES | VACV E9 pol inh
Brc1snnc1-c1ccccc1 | 110.7
O=C(c1cc2c(=O)[nH]c3ccccc3c2s1)N1CCCC1 | 97.4
COc1ccc(Cl)cc1NC(=O)CN(C(=O)c1ccccc1)C1CCCCC1 | 105.7
Cc1nc2cc(C(=O)O)ccc2n1-c1ccccc1 | 93.4
COC(=O)c1ccc(NC(=O)CCc2ccccc2)cc1 | 100.6
COc1ccc(NC(=O)C2CCCO2)c(OC)c1 (stereo unspecified) | 88.9
Fc1ccc(Nc2nc3ccc(F)cc3s2)cc1 | 81.5
O=C(Nc1cccc(F)c1)C1CCN(c2ncnc3c2sc2cccc(F)c23)CC1 | 100.4
CCc1ccc(Oc2coc3cc(OC(=O)C(C)C)ccc3c2=O)cc1 | 98.7
COc1cc(-c2nn3c(-c4ccc(C(C)(C)C)cc4)nnc3s2)cc(OC)c1OC | 101.6
CC(C)Nc1nc(N2CCCC2)nc(N2CC3CC(C2)c2cccc(=O)n2C3)n1 (stereo unspecified) | 100.5
COc1ccccc1-c1[nH]ncc1CNC1CCCCC1 | 104.4
O=C(NCCc1nc2ccccc2[nH]1)C1COc2ccccc2O1 (stereo unspecified) | 102.7
CCN(CC)C(=O)c1sc2ncn(CC(=O)Nc3cccc(C(F)(F)F)c3)c(=O)c2c1C | 116.5
O=C(c1ccc(C(=O)N2CCCC2)cc1)N1CCCC1 | 93.8
COC1OC2COC(c3ccccc3)OC2CC1O (stereo unspecified) | 100.4
CC(C(=O)N1CCCC1)N1c2cccc3cccc(c23)S1(=O)=O (stereo unspecified) | 96.7
O=c1oc2c(CN3CCOCC3)c(O)ccc2c2c1CCC2 | 94.1
CCOC(=O)c1cn(C2CC2)c2c(F)c(F)c(F)cc2c1=O | 97.4
CCc1nc2ccccc2c(C(=O)Nc2cccc(Cl)c2)c1C | 93.4
CC1(C(=O)O)CCC(c2nc3ccccc3[nH]2)C1(C)C (stereo unspecified) | 108.1
CC(C)(C)c1nc(SCc2nc(-c3cccc(-n4cccc4)c3)no2)n[nH]1 | 98.9
O=C(NCc1ccccc1)c1cc2c(s1)-c1ccccc1SC2 | 103.3
CNC(=S)C12CC3CC(CC(C3)C1)C2 | 99.7
Cc1ccc(-c2nnc(NC(=O)c3cc4c([nH]c5ccccc54)c(C)n3)s2)cc1 | 99.7
CC(NC(=O)Oc1ccccc1)C(c1cccs1)N1CCOCC1 (stereo unspecified) | 97.6
Nc1ccc(-c2nn[nH]n2)cc1F | 100.8
CCOC(=O)c1cnn(CC2CCCCC2)c1N | 99.8
Cc1nn(CCCC(=O)NC(C)C)c(=O)c2cc3sccc3n12 | 103.0
CC1CCCC(C)N1C(=O)c1scc2c1OCCO2 (stereo unspecified) | 100.1
NNC(=O)C1CCCN1S(=O)(=O)c1ccc(Cl)cc1 (stereo unspecified) | 100.3
CC(C)(C)c1ccc(/C=C/C(=O)O)s1 | 99.7
CC1(C)C2CCC3(C)OC(=O)N(N1c1ccccc1)C23C (stereo unspecified) | 100.5
Cc1ccc2c(c1)C(N1CCCC1=O)CC(c1ccco1)N2 (stereo unspecified) | 100.1
CCOC(=O)c1ccc(NC(=O)c2ccccc2OC(C)=O)cc1 | 91.9
CCC1(CC)C(=O)c2cc3ccccc3cc2C1=O | 106.4

The list goes on; it opens with the 2 that closed the last part.
SMILES | VACV E9 pol inh
CCOC(=O)c1ccc(NC(=O)c2ccccc2OC(C)=O)cc1 | 91.9
CCC1(CC)C(=O)c2cc3ccccc3cc2C1=O | 106.4
O=C(NCc1cc2ccccc2s1)C1CN(C(c2ccccc2)c2ccccc2)C1 | 101.8
O=C1C2C3C=CC(C3)C2C(=O)N1c1ccc(O)cc1 (stereo unspecified) | 100.8
O=S(=O)(Nc1ccccc1)C(Nc1ccccc1)c1ccccc1F (stereo unspecified) | 104.5
CN(C)Cc1nnnn1CCn1nnnc1CN(C)C | 100.3
CCOc1ccc2[nH]c(=O)c(C(c3nnnn3CCOC)N3CCCCC3)cc2c1 (stereo unspecified) | 100.6
CCSc1nc2c(c(=O)[nH]1)C1(CCCC1)Cc1ccccc1-2 | 100.6
N=C1SC2CS(=O)(=O)CC2N1c1cccc(C(F)(F)F)c1 (stereo unspecified) | 104.0
C=CCSc1nnc2n1CCCN2C(=O)Nc1cccc(Cl)c1 | 102.7
Cc1csc2ncnc(N3CCN(C(=S)NCC4CC4)CC3)c12 | 99.6
O=C(N1CCN(c2ccccc2)CC1)C12CC3CC(CC(C3)C1)C2 | 101.1
CCOC(=O)CSC1=C(C#N)C(c2ccc(C(C)C)cc2)C2=C(CCCC2=O)N1 (stereo unspecified) | 98.2
C=CC[n+]1c2n(c3ccc(F)c(F)c31)CCCCC2 | 101.5

Three records picked at random from those above, as already listed:
SMILES | VACV E9 pol inh
CN(C)Cc1nnnn1CCn1nnnc1CN(C)C | 100.3
CCOC(=O)CSC1=C(C#N)C(c2ccc(C(C)C)cc2)C2=C(CCCC2=O)N1 (stereo unspecified) | 98.2
O=C(N1CCN(c2ccccc2)CC1)C12CC3CC(CC(C3)C1)C2 | 101.1

Additional entries.
SMILES | VACV E9 pol inh
COc1ccc(NC(=O)C2C3C4CCC(C4)C23)cc1 (stereo unspecified) | 94.1
Cc1cc(NC(=O)c2cc(-c3ccc(F)cc3)no2)nn1CC(=O)NCc1ccco1 | 93.4
COC(=O)c1c(NC(=O)CN2C(=O)c3cccc4cccc2c34)sc2c1CCCC2 | 99.7
COc1ccc(-c2cn3cc(Br)ccc3n2)cc1 | 96.0
O=C(Cn1c2ccccc2c2cn[nH]c(=O)c21)NCCC1=CCCCC1 | 100.7
Cc1cc(SCC(=O)OCC(=O)N2CCCC2)c(C)cc1Br | 92.7
CSc1nc2sc3c(c2c(=O)n1-c1cccc(Br)c1)CC(C)(C)OC3 | 99.7
O=c1[nH]c2ccc(Br)cc2c(-c2ccccc2)c1CN1CCCCC1 | 107.2
COC(=O)Cn1c(C(F)(F)F)nc2ccccc21 | 103.1
Cc1cc(C)c(S(=O)(=O)N2CCCCC2)cc1C | 88.1
O=c1o[nH]c(-c2ccccc2)c1C=Nc1ccc(Cl)cc1 | 94.1
CCCCS(=O)(=O)c1c(-c2ccccc2)c2cc(Cl)ccc2[nH]c1=O | 100.6
Nc1cc(=O)[nH]c2nnc(SCc3ccc(Br)cc3)n12 | 91.0
C=C(C)Cn1c(CCCNC(=O)c2ccc(F)cc2)nc2ccccc21 | 102.4
NC1=C(C(=O)OCc2ccccc2)C2(C(=O)Nc3ccc(Br)cc32)C2=C(O1)C(=O)CCC2 (stereo unspecified) | 99.3
Nc1cc(=O)[nH]c(SCC(=O)c2cccs2)n1 | 100.2
CCN(c1cccc(C)c1)c1ncnc2c1cnn2-c1ccc(C)cc1C | 95.1
COc1cccc(N2C(=O)CC(SCC(=O)Nc3ccc4ccccc4c3)C2=O)c1 (stereo unspecified) | 100.1
CCOc1cccc2c1Oc1nc(-c3ccccc3)nc(SCC(=O)N(CC)CC)c1C2 | 100.6
COc1ccc(NC(=O)CCn2c(=O)sc3ccccc32)cc1 | 95.7
COC(=O)/C=C/c1cn(C2OCC(CO)C2O)c(=O)[nH]c1=O (stereo unspecified) | 77.6
Cc1c(-c2cc(NC(=O)c3ccccc3)n[nH]2)sc2ccc(Cl)cc12 | 100.4
Cc1cc(N2CCOCC2)ccc1/C=C1\NC(=O)N(Cc2ccccc2)C1=O | 100.1
CCOC(=O)c1ccc(NC(=O)c2cc3ccccc3c(=O)s2)cc1 | 104.6
O=C(c1ccccc1)c1ccccc1NS(=O)(=O)c1ccccc1 | 100.7
O=c1oc(-c2ccc(F)cc2)nc2sc3c(c12)CCCC3 | 104.0
Nn1c(Nc2ccccc2)nc2sc3c(c2c1=O)CCC3 | 98.4
COC(=O)c1sc2nc(SCC(=O)N(C)c3ccccc3)n(N)c(=O)c2c1C | 101.7
Cc1c2occ(C(C)(C)C)c2cc2c3c(c(=O)oc12)CCCC3 | 96.3
Cc1ccc(CNC(=O)c2c[nH]c3ccc(S(=O)(=O)Nc4ccc(C)cc4C)cc3c2=O)cc1 | 99.6
Fc1ccc(C2Nc3ccc(OC(F)(F)F)cc3C3C=CCC32)cc1 (stereo unspecified) | 96.6
c1ccc(CSc2nnc3c4ccccc4n(Cc4ccccc4)c3n2)cc1 | 100.6

By substructure: those above containing a cyano group.
SMILES | VACV E9 pol inh
N#Cc1ccc(C(N)CC(=O)O)cc1 (stereo unspecified) | 106.8
CC1CCc2sc(NC(=O)C(Cc3ccccc3)Cc3ccccc3)c(C#N)c2C1 (stereo unspecified) | 100.2
Cn1c(C(C#N)C(=O)C2CCCCC2)nc2ccccc21 (stereo unspecified) | 108.5
N#Cc1ccc(-c2cc(C(F)(F)F)ccc2Cl)o1 | 109.4
COc1nsc(Br)c1C#N | 100.3
Cc1ccc(C)c(-c2csc(N)c2C#N)c1 | 89.2
CCOC(=O)CSC1=C(C#N)C(c2ccc(C(C)C)cc2)C2=C(CCCC2=O)N1 (stereo unspecified) | 98.2

A portion of the library; count on the stated rates, not on these rows.
